# Source: PubChem BioAssay
# Shh pathway inh: blocks Sonic Hedgehog signaling | Shh-LIGHT2 Gli-luciferase reporter, 30 h | inhibition, % (concentration not given with the values) | 2.1% of 22,000 active | AID 2313;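 active = replicate mean of 65% or more; inconclusive = mean lower but half the replicates past it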;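 note: pathway switched on by Shh-conditioned medium diluted 1 in 25 in low serum; 100 nL library stock added to about 40 µL; 0% = median of neutral wells and 100% = positive control level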
# YB-1 expression: YB-1 expression inhibition; U2OS, qRT-PCR YB-1 vs CDIP delta delta Cp, 16 h; hits give high values; zero = DMSO, each unit about twofold; delta delta Cp (YB-1 minus CDIP) (no concentration beside the values); 0.37% of 30,000 active;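 active = delta delta Cp rounded down to an integer at or above 3, about 3 SD of DMSO wells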;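 note: higher means less YB-1 transcript or more CDIP transcript relative to DMSO; stock transfer was 100 nL into about 100 µL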
# MITF inh: inhibitors of MITF | inhibition, % (test concentration not listed) | AID 2240 | 0.28% of 37,000 active | TRPM1 promoter luciferase, luminescence, 24 h;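 active = most replicates at 85% or more, or half of them and the mean; inconclusive = half reach 85% but not the mean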;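 note: human melanocyte line stably carrying TRPM1 promoter luciferase reporter; 0% = vehicle wells and 100% = a positive control; the first replicate is given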
# PD-1 reverse act: activators reversing PD-1 mediated T-cell inhibition; primary human CD4 T cells, PD-L1 beads, CellTiter-Glo 96 h; activation, % (no concentration beside the values); 29,000 tested, under 10 active;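 active = replicate mean of 50% or more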;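 note: 0% = median vehicle wells and 100% = positive control; 100 nL library stock added to about 50 µL; numbers are from one replicate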
# Starred values were filed as active, the others as inactive; ? = inconclusive; . = not tested or not shown. Not all compounds are listed, so the mix of outcomes need not match the whole.
# A first look (2 entries):
SMILES,Shh pathway inh,YB-1 expression,MITF inh,PD-1 reverse act
COc1ccc(S(=O)(=O)N(C)C[C@@H]2Oc3ccc(NC(=O)Nc4cccc5ccccc45)cc3C(=O)N([C@H](C)CO)C[C@@H]2C)cc1,23.0,-0.0952,-11.4,-0.7
C[C@H](CO)N1C[C@H](C)[C@@H](CN(C)CC2CCCCC2)Oc2ccc(NS(=O)(=O)c3ccccc3)cc2C1=O,.,-0.0109,-9.8,1.2

# The list itself, from the start:
SMILES,Shh pathway inh,YB-1 expression,MITF inh,PD-1 reverse act
COc1ccc(S(=O)(=O)N(C)C[C@@H]2Oc3ccc(NC(=O)Nc4cccc5ccccc45)cc3C(=O)N([C@H](C)CO)C[C@@H]2C)cc1,23.0,-0.0952,-11.4,-0.7
C[C@H](CO)N1C[C@H](C)[C@@H](CN(C)CC2CCCCC2)Oc2ccc(NS(=O)(=O)c3ccccc3)cc2C1=O,.,-0.0109,-9.8,1.2
O=C(Cc1ccccc1)NO,-27.0,-0.026,4.6,.
COc1ccc(S(=O)(=O)N(C)C[C@H]2Oc3c(NC(=O)Nc4ccccc4)cccc3C(=O)N([C@@H](C)CO)C[C@H]2C)cc1,20.0,-0.475,24.0,0.3
COc1ccc(S(=O)(=O)N(C)C[C@@H]2Oc3ccc(NS(C)(=O)=O)cc3CC(=O)N([C@@H](C)CO)C[C@@H]2C)cc1,0.2,0.293,-4.0,-0.5
COc1ccc(NC(=O)CSc2nc(C)cc(=O)[nH]2)cc1,.,.,-3.5,0.1
C[C@@H]1CN([C@@H](C)CO)C(=O)c2cc(NS(=O)(=O)c3cccs3)ccc2O[C@@H]1CN(C)S(=O)(=O)c1cccs1,21.9,0.0787,-7.9,-0.1
Cc1ccc(S(=O)(=O)N(C)C[C@H]2Oc3ccc(NC(=O)NC(C)C)cc3C(=O)N([C@@H](C)CO)C[C@H]2C)cc1,.,-0.122,-8.3,1.5
C[C@@H]1CCCCO[C@@H](CN(C)C(=O)CCC(F)(F)F)[C@@H](C)CN([C@H](C)CO)C(=O)c2cc(NC(=O)c3ccccc3)ccc2O1,.,-0.0933,-3.1,-0.7
Cc1cc(C)n(-c2nc3ccc([N+](=O)[O-])cc3nc2-n2nc(C)cc2C)n1,.,.,18.6,-1.7
CCOC(=O)C1=C(C)Nc2ncnn2C1c1c[nH]c2ccccc12 (centres undefined),.,.,-5.4,1.8
C[C@H](CO)N1C[C@H](C)[C@H](CN(C)C(=O)NC2CCCCC2)Oc2ccc(NC(=O)Nc3cccc4ccccc34)cc2C1=O,-10.0,-0.356,17.3,-3.1
COc1ccc(S(=O)(=O)Nc2ccc3c(c2)CC(=O)N([C@H](C)CO)C[C@@H](C)[C@@H](CN(C)Cc2ccc(C(F)(F)F)cc2)O3)cc1,14.2,-0.203,-1.0,-3.8
COc1ccc(CN(C)C[C@H]2Oc3c(NC(=O)Nc4ccccc4)cccc3C(=O)N([C@H](C)CO)C[C@H]2C)cc1,-12.5,-0.0565,-8.8,.
C[C@@H]1CN([C@H](C)CO)C(=O)c2cc(NC(=O)Cn3cnnn3)ccc2O[C@@H]1CN(C)Cc1ccccc1,.,0.201,-2.1,1.4
C[C@@H]1CCCCO[C@H](CN(C)C)[C@@H](C)CN([C@H](C)CO)C(=O)c2cc(NC(=O)NC3CCCCC3)ccc2O1,-13.1,-0.113,-1.1,1.0
CCC(Sc1nc2ccccc2o1)C(=O)Nc1cccc2ccccc12 (centres undefined),.,.,38.2,0.8
C[C@@H]1CN([C@@H](C)CO)C(=O)c2cccc(NC(=O)CCCCCC(=O)Nc3ccccc3N)c2O[C@@H]1CN(C)C(=O)Nc1ccc(F)cc1,.,0.205,-0.5,-0.7
C[C@@H]1CN([C@@H](C)CO)C(=O)Cc2cc(NC(=O)CCC(F)(F)F)ccc2O[C@@H]1CN(C)Cc1ccccc1,-18.7,0.0143,-3.2,.
COc1ccc(S(=O)(=O)Nc2ccc3c(c2)CC(=O)N([C@H](C)CO)C[C@@H](C)[C@H](CN(C)C(=O)Nc2ccc(C(F)(F)F)cc2)O3)cc1,-20.9,-0.204,8.5,.
COc1ccc([N+](=O)[O-])cc1CSc1nnc(-c2ccc(NC(C)=O)cc2)n1C,.,.,-12.3,3.4
N#CCCN(CC1CCCO1)C(=S)NC1CC2C=CC1C2 (centres undefined),-6.8,-0.78,-33.4,0.0
CC(C)NC(=O)N(C)C[C@H]1Oc2c(NS(=O)(=O)c3cccs3)cccc2C(=O)N([C@H](C)CO)C[C@@H]1C,-17.9,0.0616,-13.2,2.0
C[C@@H]1CN([C@H](C)CO)C(=O)c2cccc(NS(=O)(=O)c3cccs3)c2O[C@@H]1CN(C)Cc1ccc(Oc2ccccc2)cc1,15.8,-0.148,-11.0,-1.3
CC(C)NC(=O)N(C)C[C@@H]1Oc2ccc(NS(=O)(=O)c3cccs3)cc2C(=O)N([C@H](C)CO)C[C@H]1C,.,0.249,-5.8,-2.7
Cc1noc(C)c1S(=O)(=O)Nc1ccc2c(c1)C(=O)N([C@H](C)CO)C[C@H](C)[C@H](CN(C)C(=O)Nc1ccccc1)OCCCC[C@@H](C)O2,?,0.307,-10.5,1.6
Cc1c(CCC(=O)O)c(=O)oc2cc(O)c(Cl)cc12,.,.,10.9,3.9
C[C@H](CO)N1C[C@H](C)[C@@H](CN(C)C)Oc2ccc(NC(=O)CCC(F)(F)F)cc2C1=O,-4.2,-0.251,-0.8,0.8
C[C@H](CO)N1C[C@H](C)[C@H](CN(C)S(=O)(=O)c2ccccc2)Oc2c(NC(=O)NC3CCCCC3)cccc2C1=O,1.6,0.0015,4.1,-0.6
COc1ccc(NC(=O)N(C)C[C@@H]2Oc3ccc(NS(=O)(=O)c4ccc(C)cc4)cc3CC(=O)N([C@H](C)CO)C[C@@H]2C)cc1,-15.1,-0.00822,-18.0,0.2

# Profiles from above. Values in the order: Shh pathway inh, YB-1 expression, MITF inh, PD-1 reverse act
# `CC(C)NC(=O)N(C)C[C@@H]1Oc2ccc(NS(=O)(=O)c3cccs3)cc2C(=O)N([C@H](C)CO)C[C@H]1C` across the screens: ., 0.249, -5.8, -2.7
# `CC(C)NC(=O)N(C)C[C@H]1Oc2c(NS(=O)(=O)c3cccs3)cccc2C(=O)N([C@H](C)CO)C[C@@H]1C` across the screens: -17.9, 0.0616, -13.2, 2.0

# (list continues)
SMILES,Shh pathway inh,YB-1 expression,MITF inh,PD-1 reverse act
C[C@@H]1CN([C@@H](C)CO)C(=O)Cc2cc(NS(=O)(=O)c3ccccc3)ccc2O[C@@H]1CN(C)CC1CCCCC1,12.4,.,-19.9,.
C[C@@H]1CN([C@H](C)CO)C(=O)c2cc(NS(=O)(=O)c3ccc(F)cc3)ccc2O[C@@H]1CN(C)C(=O)Nc1ccccc1,.,0.405,-9.7,-0.5
NCCCCNS(=O)(=O)c1ccc2c(Cl)cccc2c1,44.9,0.264,3.8,3.4
C=CCn1nc2sc3ccccc3n2c(=O)c1=O,-5.3,-0.399,-7.0,0.0
COc1ccc(OC)c(N(CC(=O)Nc2ccc(Br)cc2F)S(C)(=O)=O)c1,.,.,17.5,0.8
C[C@H]1CN([C@@H](C)CO)C(=O)c2cc(NS(C)(=O)=O)ccc2O[C@@H]1CN(C)C(=O)Nc1ccc2c(c1)OCO2,.,-0.223,-8.3,3.4
COc1ccc(CN(C)C[C@@H]2Oc3ccc(NS(=O)(=O)c4cccs4)cc3C(=O)N([C@@H](C)CO)C[C@@H]2C)cc1,28.3,1.07,-16.0,-0.4
CC(=O)Nc1ccccc1-c1nc2ccccc2nc1OCc1ccc([N+](=O)[O-])cc1,.,.,-3.5,-2.0
C[C@@H]1CN([C@@H](C)CO)C(=O)c2cccc(NC(=O)NC3CCCCC3)c2O[C@@H]1CN(C)Cc1ccncc1,14.5,0.111,-2.4,1.7
CN(C)CCC=C1c2ccccc2C=Cc2ccccc21,34.4,0.161,8.7,.
C[C@@H]1CN([C@@H](C)CO)C(=O)c2cc(NC(=O)Nc3cccc4ccccc34)ccc2O[C@@H]1CN(C)Cc1ccc(C(F)(F)F)cc1,.,0.13,39.7,-6.7
COc1ccc(S(=O)(=O)Nc2cccc3c2O[C@H](CN(C)S(=O)(=O)c2ccc(C)cc2)[C@@H](C)CN([C@@H](C)CO)C3=O)cc1,14.6,-0.115,3.2,0.5
Cc1cc(C(=O)Nc2cccc3c2O[C@H](CN(C)C(=O)Nc2ccccc2)[C@H](C)CN([C@@H](C)CO)C3=O)n(C)n1,0.0,-0.36,-7.1,0.2
COc1ccc(CN(C)C[C@H]2Oc3ccc(NC(=O)Nc4ccc(C(F)(F)F)cc4)cc3CC(=O)N([C@@H](C)CO)C[C@@H]2C)cc1,18.1,-0.511,0.7,.
C[C@H]1CN([C@@H](C)CO)C(=O)c2cc(NC(=O)Cc3ccccc3)ccc2O[C@H]1CN(C)C(=O)NC1CCCCC1,.,0.125,1.8,-1.4
COc1ccc(C(=O)CC2(O)C(=O)N(Cc3ccc(C)cc3)c3ccc(Cl)cc32)cc1[N+](=O)[O-] (centres undefined),.,.,48.1,-12.9
C[C@@H]1CN([C@@H](C)CO)C(=O)c2cccc(NC(=O)c3cnccn3)c2O[C@@H]1CN(C)C(=O)Nc1ccc(C(F)(F)F)cc1,-7.9,0.289,10.5,-0.8
Cc1[nH]c2ccccc2c1C(=O)CSc1ncn[nH]1,.,.,-29.5,-1.7
Cc1noc(C)c1NC(=O)Nc1ccc2c(c1)C(=O)N([C@@H](C)CO)C[C@@H](C)[C@H](CN(C)C(=O)Nc1ccc3c(c1)OCO3)O2,-34.8,0.306,-3.2,1.8
COc1ccc(S(=O)(=O)NCCOc2ccccc2)cc1OC,.,.,-2.6,-0.3
CN1CCN(CCN2C(=O)c3ccccc3Sc3cc(Cl)ccc3S2(=O)=O)CC1,32.6,0.658,-3.4,-0.2
C[C@@H]1CN([C@H](C)CO)C(=O)c2cc(NC(=O)Nc3ccc(C(F)(F)F)cc3)ccc2O[C@@H]1CN(C)C(=O)Nc1ccccc1,-0.4,-0.0297,18.4,-3.1
Cc1ccc(-n2c(SCC(=O)Nc3cccc(C)c3C)nc3ccccc3c2=O)cc1,.,.,14.3,-1.7
CCSc1nnc2nc3c4ccccc4c4ccccc4c3nn12,-13.1,0.0505,25.9,0.1
COc1ccc(-c2nnc(SCC(=O)Nc3cccc(C(F)(F)F)c3)n2-c2ccccc2)cc1,.,.,-0.6,-3.6
COc1ccc(S(=O)(=O)N(C)C[C@@H]2Oc3ccc(NS(=O)(=O)c4ccc(C)cc4)cc3C(=O)N([C@@H](C)CO)C[C@@H]2C)cc1,20.9,0.0429,-2.8,0.6
CSc1sc(C#N)c(C)c1C(=O)/C=C/N(C)C,-14.8,0.167,4.9,0.9
Cc1noc(C)c1NC(=O)Nc1ccc2c(c1)C(=O)N([C@H](C)CO)C[C@H](C)[C@H](CN(C)Cc1ccc(C(=O)O)cc1)OCCCC[C@@H](C)O2,.,-0.179,-1.7,0.6
COC(=O)/C(=C/c1ccccc1)c1ccccc1,51.7,-0.0758,15.3,2.2
COc1ccc(S(=O)(=O)N(C)C[C@@H]2Oc3ccc(NS(=O)(=O)c4c(C)noc4C)cc3C(=O)N([C@@H](C)CO)C[C@@H]2C)cc1,.,-0.532,-13.3,-1.4
C[C@H]1CN([C@@H](C)CO)C(=O)c2cc(NS(=O)(=O)c3ccc(Cl)cc3)ccc2O[C@@H]1CN(C)C(=O)Nc1cccc2ccccc12,.,0.0218,-15.1,2.4
c1ccc(C2C3=C(CCCC3)SC3=C2CCCC3)cc1,-12.3,0.0816,-10.1,-0.6
COc1ccc(NC(=O)N(C)C[C@@H]2Oc3ccc(NC(=O)C4CCCCC4)cc3CC(=O)N([C@H](C)CO)C[C@H]2C)cc1,-39.7,0.0615,-2.3,0.6
COc1ccc(S(=O)(=O)Nc2ccc3c(c2)CC(=O)N([C@H](C)CO)C[C@@H](C)[C@@H](CN(C)Cc2ccccc2)O3)cc1,7.2,0.365,-7.5,-0.1
COc1ccc(I)cc1C(Nc1cc(C)ccn1)c1ccc2cccnc2c1O (centres undefined),.,.,40.7,-14.2
Cc1ccc(S(=O)(=O)Nc2cccc3c2O[C@@H](CN(C)Cc2ccc(C(F)(F)F)cc2)[C@H](C)CN([C@H](C)CO)C3=O)cc1,24.5,-0.244,11.5,.
COc1ccc(S(=O)(=O)Nc2cccc3c2O[C@@H](CN(C)S(=O)(=O)c2ccc(C)cc2)[C@H](C)CN([C@@H](C)CO)C3=O)cc1,-20.2,0.593,-6.5,.
C[C@@H]1CN([C@@H](C)CO)C(=O)Cc2cc(NC(=O)C3CCCCC3)ccc2O[C@@H]1CN(C)CC1CC1,-41.5,-0.244,-2.0,.
Cc1ccc(S(=O)(=O)N(C)C[C@@H]2Oc3c(NC(=O)Nc4ccccc4)cccc3C(=O)N([C@H](C)CO)C[C@H]2C)cc1,-14.6,-0.283,-14.1,-1.3
CNC[C@H]1Oc2c(NC(=O)NC(C)C)cccc2C(=O)N([C@@H](C)CO)C[C@H]1C,-49.8,-0.301,-6.4,1.5
CNC[C@@H]1Oc2ccc(NS(C)(=O)=O)cc2CC(=O)N([C@H](C)CO)C[C@H]1C,-6.3,-0.121,-3.7,0.8
O=C(Cn1cc(C(=O)C2CC2)c2ccccc21)Nc1ccccc1C(F)(F)F,.,.,11.4,-0.2
C[C@@H]1CN([C@@H](C)CO)C(=O)c2cc(NC(=O)c3ccncc3)ccc2O[C@@H]1CN(C)Cc1ccc(C(=O)O)cc1,-15.0,0.216,0.3,1.9
